GALR2 ag: activates the human galanin receptor 2. O43603. GALR2-expressing cells, agonist activation read-out. activation, %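 (tested at 5 µM)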. 140,000 tested, 0.48% active;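 active means above mean plus 3 SD of all compounds, about 5% in these data, not always enough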;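 further: 0% = vehicle buffer wells and 100% = reference agonist at full effect; tested in CHO reporter cells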
RGS16-Gao: regulators of human RGS16-Galphao interaction. O15492+P09471. bead-based flow cytometry RGS16-Galphao binding, fluorescence; actives lie on both sides. binding response (% of control), % at 10 µM. 220,000 tested, 0.38% active. AID 1441;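 active means below 25% or above 175%, edge rows of some plates excepted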;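 further: Galphao activated by GDP with aluminum fluoride before binding; 100% = wells without compound and 0% = beads without RGS; some results beyond the cut were filed as inactive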
INS promoter inh: TRM-6 insulin promoter activity inhibition. TRM-6 cells (human fetal islet line), insulin promoter-eGFP reporter, imaging; reporter expression induced with tamoxifen. inhibition, % at 2 µM. 130,000 tested, 0.9% active;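 active means inhibition above the mean plus 3 SD, with well images judged a real hit on visual review, cut at about 60% in these data, passing the limit was not always enough; inconclusive means inhibition over the cutoff but images rejected on review; inactive means inhibition not above the cutoff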
HSV augment: HSV replication enhancement | 220,000 tested, 0.005% active | maximum fold increase | HSV replication augmentation in cells, fold increase;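 active means peak rise of 1.5-fold or more in the series; inconclusive means self-fluorescent or not available for retest; tested in PC3 cells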;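 further: first round at 10 µM; read as green reporter fluorescence; hits show the peak of a series up to 25 µM; 1 = signal of infected wells without compound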
PKD1 kinase inh: inhibitors of human PKD1 kinase; PKD1 kinase fluorescence polarization assay; inhibition, %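 (about 10 µM by stock and volumes)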; AID 797; 200,000 tested, 0.056% active; Q15139;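 active means inhibition of 50% or more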;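 further: controls were vehicle for no effect and a reference inhibitor for full effect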
Target sequence (Q15139 whole entry, looked up): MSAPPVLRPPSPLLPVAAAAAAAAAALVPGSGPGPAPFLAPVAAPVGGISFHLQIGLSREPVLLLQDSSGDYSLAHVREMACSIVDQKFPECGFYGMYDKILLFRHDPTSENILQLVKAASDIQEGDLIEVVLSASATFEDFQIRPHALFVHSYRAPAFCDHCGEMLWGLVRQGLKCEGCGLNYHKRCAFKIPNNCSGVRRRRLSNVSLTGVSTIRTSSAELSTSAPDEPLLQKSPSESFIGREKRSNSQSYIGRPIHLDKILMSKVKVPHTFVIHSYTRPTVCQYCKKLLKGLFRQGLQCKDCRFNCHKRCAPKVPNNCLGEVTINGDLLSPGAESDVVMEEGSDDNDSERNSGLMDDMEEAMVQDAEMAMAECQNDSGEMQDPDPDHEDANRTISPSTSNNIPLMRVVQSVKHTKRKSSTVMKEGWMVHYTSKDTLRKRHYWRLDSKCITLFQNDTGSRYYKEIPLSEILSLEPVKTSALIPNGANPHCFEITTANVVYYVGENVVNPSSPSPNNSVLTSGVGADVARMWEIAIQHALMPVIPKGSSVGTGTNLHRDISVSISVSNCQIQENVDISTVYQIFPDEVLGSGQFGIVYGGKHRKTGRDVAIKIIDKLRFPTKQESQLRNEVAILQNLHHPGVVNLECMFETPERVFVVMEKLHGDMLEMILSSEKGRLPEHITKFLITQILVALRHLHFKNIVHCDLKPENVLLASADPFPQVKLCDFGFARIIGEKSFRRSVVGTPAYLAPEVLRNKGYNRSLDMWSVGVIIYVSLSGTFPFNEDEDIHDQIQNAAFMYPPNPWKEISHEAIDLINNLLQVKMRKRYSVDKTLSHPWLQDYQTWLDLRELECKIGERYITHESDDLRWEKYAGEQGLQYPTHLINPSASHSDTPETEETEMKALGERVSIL
INS promoter inh cell count: also measured in INS promoter inh; calls as there; normalized cell count, %; measured here: cell count, toxicity; reference of the scale not given here;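 cells exposed to compound for 48 h; stained nuclei by imaging scaled within each plate; lower means fewer cells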
HSV augment primary fold: further read-out of HSV augment, marked with its call; fold increase; compound at 10 µM; measured here: primary screen fold increase 10 uM; tested in PC3 cells;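 GFP signal in the first replicate; 1 = infected wells without compound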
An asterisk follows results filed as active; i = inactive; ? = inconclusive; . = no result given.

SMILES	GALR2 ag	RGS16-Gao	INS promoter inh	INS promoter inh cell count	HSV augment	HSV augment primary fold	PKD1 kinase inh
CCOC(=O)/C(C#N)=C/C1=C(N2CCOCC2)C(C)(C)OCC1	.	99	.	.	i	1.1	.
COC(=O)/C(NC(C)=O)=C(\C)c1ccc(Cl)cc1	-2.1	108	-169	125	i	0.9	-4
CCCN1Cc2cccc(C(=O)NC(CC(=O)OCC)c3ccc(C)cc3)c2C1=O (centres undefined)	.	102	.	.	i	1.1	10
CC(NC(=O)c1ccc(OC2CCN(S(=O)(=O)N(C)C)CC2)cc1)C1CC1 (centres undefined)	.	72	.	.	i	0.93	2
CC[N+](C)(C)c1cccc(O)c1	-0.5	102	-36	111	i	0.72	-4
Cn1c(N)c(C(=O)COC(=O)CC2CC3CCC2C3)c(=O)n(C)c1=O (centres undefined)	.	103	25	141	i	1	-3
O=C1COc2ccc(C(=O)CSc3nc4ccccc4c(=O)n3-c3ccc(Cl)c(Cl)c3)cc2N1	.	101	-25	133	i	0.72	-9
Cc1ccc(S(=O)(=O)CC(N)=O)cc1	-3.0	105	-307	106	i	0.73	1
COc1ccc(C(=O)CNc2ccccc2CO)cc1	.	56	-71	110	i	1.1	2
Cc1ccc(NC(=O)Cn2ccc([N+](=O)[O-])n2)cc1C	.	97	.	.	i	0.92	3

Quoted at random: 7 entries already listed
SMILES	GALR2 ag	RGS16-Gao	INS promoter inh	INS promoter inh cell count	HSV augment	HSV augment primary fold	PKD1 kinase inh
Cc1ccc(S(=O)(=O)CC(N)=O)cc1	-3.0	105	-307	106	i	0.73	1
O=C1COc2ccc(C(=O)CSc3nc4ccccc4c(=O)n3-c3ccc(Cl)c(Cl)c3)cc2N1	.	101	-25	133	i	0.72	-9
Cc1ccc(NC(=O)Cn2ccc([N+](=O)[O-])n2)cc1C	.	97	.	.	i	0.92	3
CCOC(=O)/C(C#N)=C/C1=C(N2CCOCC2)C(C)(C)OCC1	.	99	.	.	i	1.1	.
COc1ccc(C(=O)CNc2ccccc2CO)cc1	.	56	-71	110	i	1.1	2
COC(=O)/C(NC(C)=O)=C(\C)c1ccc(Cl)cc1	-2.1	108	-169	125	i	0.9	-4
CC[N+](C)(C)c1cccc(O)c1	-0.5	102	-36	111	i	0.72	-4

The list goes on.
SMILES	GALR2 ag	RGS16-Gao	INS promoter inh	INS promoter inh cell count	HSV augment	HSV augment primary fold	PKD1 kinase inh
CCNc1cc(N2CCCC2)ccc1[N+](=O)[O-]	-1.2	89	-11	135	i	0.86	3
COC(=O)c1cc(O)c(O)c(O)c1	-1.7	95	-38	123	i	1.1	-2
COc1ccc(OCC(=O)Nc2cccc3cccnc23)cc1	-1.9	96	-19	100	i	0.84	4
Cc1ccnn1C(C)C(=O)O (centres undefined)	.	107	.	.	i	0.91	-5
O=C(/C=C/c1cccc([N+](=O)[O-])c1)Nc1ccc(NC(=O)c2cccs2)cc1	0.4	88	.	.	i	1.1	-6
CN(c1ccccc1)S(=O)(=O)c1ccc(C(=O)OCC(=O)NCc2cccs2)cc1	.	112	.	.	i	0.86	.
Cc1nn(CCC(=O)NNC(=S)Nc2ccccc2)c(C)c1Br	-0.9	106	6	92	i	0.97	1
CC(C)=NOc1nc(N(C)C)nc(N2CCOCC2)n1	.	103	.	.	i	0.94	.
O=c1[nH]c(CN2CCN(c3ccccc3O)CC2)nc2ccccc12	-3.3	99	-61	85	i	0.98	-5
O=C(c1cc2ccccc2oc1=O)N(Cc1ccccc1)C1CCS(=O)(=O)C1 (centres undefined)	-1.6	94	16	114	i	1.1	-4
Cc1ccc(Nc2nc(Nc3ccc(C)cc3)nc(SC3=NCCS3)n2)cc1	-1.4	96	48	119	.	.	2
Cc1ccccc1Nc1nnc(C)c(=O)[nH]1	-3.6	103	3	274	i	1.1	-8
Cc1cc(C)nc(N(C#N)Cc2cccc3ccccc23)n1	-0.6	104	-29	125	i	0.94	-4
O=C(CNS(=O)(=O)c1ccccc1)NCC(=O)OCc1ccc(Br)cc1	.	81	.	.	i	1	2
CC(=O)Nc1ccc(S(=O)(=O)NCCc2csc(C)n2)cc1	0.1	91	0	125	i	1.1	-7
C=CCSc1nnc2c(n1)[nH]c1c(C)cccc12	-1.0	99	27	116	i	0.66	-3
O=C(CCCn1c(SCC(=O)NCCc2ccccc2)nc2ccccc2c1=O)NCC1CCCO1 (centres undefined)	.	102	0	66	i	0.87	-6
CC(=O)C1=C(C)NC(C)=C(C(C)=O)C1c1cn(-c2ccccc2)nc1-c1cccs1	-3.1	57	53	72	i	1.1	-11
COc1ccccc1-n1c(SCC(=O)N2CCc3ccccc32)nc2c(c1=O)SCC2	-3.1	97	.	.	i	0.96	-2
Cc1cc(S(=O)(=O)N2CCCC2C(=O)N2CCOCC2)c(C)cc1Cl (centres undefined)	1.6	103	-25	88	i	0.81	-8
Cc1cc(=O)oc(C)c1C(=O)NNC(=O)C1(C)CC1Br (centres undefined)	.	98	.	.	i	1.1	.
COc1ccccc1C(=O)NC(=S)Nc1cc(C(=O)O)ccc1C	.	106	27	103	i	0.89	-2
CC(=O)Nc1ccc(S(=O)(=O)Nc2nc3ccccc3nc2Sc2nncn2C)cc1	-2.0	104	10	34	i	1.2	0
Cc1ccc(NC(=O)CN2CCc3ccccc3C2)cc1S(=O)(=O)N1CCOCC1	-1.1	97	8	94	i	0.88	1
COc1ccc(Cl)cc1NC(=S)NN1CCOCC1	.	99	-21	105	i	1	3
Cc1ccc(CN(C(=O)c2cc3ccccc3oc2=O)C2CCS(=O)(=O)C2)cc1 (centres undefined)	-2.5	94	-38	100	i	0.94	-4
COc1ccccc1NC(=O)CN1CCN(Cc2ccccc2)CC1	-2.7	102	18	75	i	0.87	-3
CCn1nc(C(=O)N[C@@H](CCSC)c2nc3ccccc3[nH]2)c2ccccc2c1=O	-1.4	104	-36	92	i	0.97	-8
COc1ccc(C(c2nnnn2C2CCCCC2)N2CCN(c3ccccc3F)CC2)cc1 (centres undefined)	-1.3	102	.	.	i	0.99	2
CCCCC(=O)NC(Nc1ccc(C)cn1)(C(=O)OCC)C(F)(F)F (centres undefined)	0.2	110	.	.	i	0.88	-8
c1ccc(C2c3c(ccc4ccccc34)Oc3ncn4nc(-c5ccco5)nc4c32)cc1 (centres undefined)	0.8	108	39	95	i	1.3	-9
CCOc1ccc(NC(=O)CS(=O)CC(=O)NC2CCCc3ccccc32)cc1 (centres undefined)	-3.1	93	.	.	i	0.96	-3
CC1=NNC(=O)C1CCC(=O)N/N=C\c1cccc(Cl)c1 (centres undefined)	.	107	-14	64	i	0.94	-2
CCOC(=O)c1ccc(NC(=O)COc2ccc(S(=O)(=O)NC(C)CC)cc2)cc1 (centres undefined)	-1.1	99	-8	192	i	0.81	-1
O=C(Cn1nnc(-c2ccccc2F)n1)Nc1ccc(C(=O)N2CCOCC2)cc1	-0.8	101	-100	82	i	0.91	-6
Cc1ccc(-c2nn(-c3ccccc3)cc2/C=N/NC(=O)CSc2nnc(C)n2-c2ccccc2)cc1	-0.4	95	.	.	i	0.79	2
Cc1cc2c(cc1[N+](=O)[O-])NC(CNC(C)C)CC2 (centres undefined)	.	89	.	.	i	0.85	.
COc1ccccc1NC(=S)NNC(=O)c1nn(C)c(C)c1Cl	-1.0	102	4	110	i	0.96	7
CCOC(=O)C1CCCN(C(=O)/C=C/c2ccc([N+](=O)[O-])cc2)C1 (centres undefined)	-0.8	118	.	.	i	1.2	-8
CCCN(CCC)CCCNC(=O)CS(=O)Cc1nc(-c2ccc(OC)c(OC)c2)oc1C (centres undefined)	-0.7	95	36	113	i	0.93	-4
N=c1c(C(=O)NCc2ccco2)cc2c(=O)n3ccccc3nc2n1Cc1ccc(Cl)cc1	5.2*	92	0	90	i	1.1	-9
COc1ccc(N2CCN(C(CNC(=O)C(=O)NCCCn3ccnc3)c3ccco3)CC2)cc1 (centres undefined)	.	103	.	.	i	1.1	-1
CCN(CC)CCNC(=O)Cn1cnc2sc(C)c(S(=O)(=O)N3CCN(c4ncccn4)CC3)c2c1=O	.	98	.	.	i	1	3
CCOC(=O)CN1C(=O)C2(OCCCO2)c2ccccc21	-1.2	100	-210	108	i	1.1	-6
CN(C)S(=O)(=O)c1cccc(-c2nnc(SCc3cc(Cl)cc4c3OCOC4)n2N)c1	-2.3	96	0	121	i	1	28
CCCn1nnc(NC(=S)NC(=O)Cc2ccccc2)n1	.	107	.	.	i	0.88	1
CN1C(=O)/C(=C/c2cc(C(C)(C)C)c(O)c(C(C)(C)C)c2)NC1=S	.	98	-21	105	i	1	-8
Cc1ccc(N(CCCCN2C(=O)c3ccccc3C2=O)C(=O)c2ccc(Cl)s2)cc1	-2.1	104	.	.	i	1	6
CCC(CC)C(=O)c1c[nH]c(C(=O)NN)c1	.	101	-187	8	i	0.71	8
CCSC(C)CC1C/C(=N/O)c2c(C)noc2C1 (centres undefined)	-1.2	53	.	.	i	0.72	-5

Gathered by group: the entries above with a COOH group (2)
SMILES	GALR2 ag	RGS16-Gao	INS promoter inh	INS promoter inh cell count	HSV augment	HSV augment primary fold	PKD1 kinase inh
Cc1ccnn1C(C)C(=O)O (centres undefined)	.	107	.	.	i	0.91	-5
COc1ccccc1C(=O)NC(=S)Nc1cc(C(=O)O)ccc1C	.	106	27	103	i	0.89	-2

Additional results
SMILES	GALR2 ag	RGS16-Gao	INS promoter inh	INS promoter inh cell count	HSV augment	HSV augment primary fold	PKD1 kinase inh
Cn1nc(-c2ccccc2)c2nc3ccccc3nc21	-0.2	98	-150	95	?	.	-4
CCCCCCNS(=O)(=O)c1ccc(NC(=O)C2CCCO2)cc1 (centres undefined)	-0.3	95	0	159	i	0.97	-5
CN1CCN(CCNC(=O)Nc2ccccc2C(F)(F)F)CC1	-1.5	103	69	65	i	0.96	-5
Cc1cc(C)c2c(N)c(S(=O)(=O)Cc3ccccc3)sc2n1	-0.5	102	13	89	.	.	-6
CCOC(=O)c1cnn(-c2nc(SC)nc3sc4c(c23)CCCC4)c1N	0.0	100	-23	66	i	1.1	0
COc1cccc(S(=O)(=O)NCc2ccc(C(=O)Nc3ccc(Cl)cc3)cc2)c1	-1.6	111	.	.	i	0.84	-9
CC1Cc2ccccc2N1C1=CC(=O)CC(C)(C)C1 (centres undefined)	.	102	.	.	i	1	-11
O=C(CN1CCC(NC(=O)c2ccccc2F)CC1)NCc1ccc(F)cc1	-1.9	100	32	64	i	0.87	-3
Cc1ccc(C(=O)CSc2nc3ccccc3c(=O)[nH]2)cc1	-1.1	101	-21	135	i	0.82	4
CC(C)(C)C(=O)NC(=S)Nc1sc2c(c1C(N)=O)CCC2	.	98	.	.	i	0.96	-3
O=C(N/N=C/c1ccc[nH]1)c1ccccc1O	.	103	.	.	i	0.9	-7
O=C(O)CCCCCCNS(=O)(=O)c1ccccc1	-1.7	92	-22	66	i	1	-4
CSCCC1Nc2ccc(S(=O)(=O)N3CCOCC3)cc2NC1=O (centres undefined)	.	105	-40	79	i	1.1	-3
O=c1c(O)c(-c2ccc3c(c2)OCO3)oc2ccccc12	1.2	103	-50	62	?	.	8
COc1cc(C(=O)OCC(=O)Nc2cc(-c3cc(C)c(C)cc3C)nn2-c2ccccc2)cc(OC)c1OC	-0.8	114	-57	69	i	0.96	-7
Nc1c(C(=O)NC2CCCC2)c2nc3ccccc3nc2n1N	4.1	87	.	.	i	1	-3
O=C(Nc1nc2c(s1)CN(Cc1ccccc1)CC2)C1CCC1	.	100	.	.	i	0.92	-1
CCOC(=O)c1cn2nc(-c3ccc(OCC)cc3)cc2nc1C1CCN(C(=O)OC(C)(C)C)CC1	-2.8	106	52	128	i	1.1	-9
CSC1=NCCN1C(=O)Cc1ccc(F)cc1	-1.4	106	.	.	i	0.88	-16
CC(=O)N1c2c(cc(Br)cc2S(=O)(=O)N2CCOCC2)CC1C (centres undefined)	-0.5	99	-15	134	i	1.1	-5
CCC(C)N(C(=O)COC(=O)c1[nH]c(C)c(C(C)=O)c1C)C1CCS(=O)(=O)C1 (centres undefined)	-1.3	.	23	193	i	1.1	-2
O=C(CN1C(=O)COc2ccc(S(=O)(=O)N3CCCC3)cc21)N1CCCC1	.	88	.	.	i	1.1	.
COc1cccc(-c2ccc(-c3noc(-c4cccs4)n3)c(OC)n2)c1	-1.2	101	3	79	i	0.91	-3
COC(=O)Cn1nc(-c2ccccc2)c2cc(Cl)ccc21	-2.6	104	-9	95	i	1.1	-2
CCOc1ncccc1C(=O)OCC(=O)c1ccc[nH]1	0.1	107	.	.	i	0.89	-7
O=C(NC1=NCCS1)C1CC2CCC1C2 (centres undefined)	-1.6	114	.	.	i	1.1	18
O=C1CCCC(=O)C1C(=O)C1CCN(S(=O)(=O)c2ccccc2)CC1	.	103	-24	96	i	1	0
CCCS(=O)(=O)N1CCCC(C(=O)c2ccccc2OC)C1 (centres undefined)	.	110	.	.	i	0.91	-7

Screening data from PubChem.
